Source: PubChem (several laboratories)
RN4220 kill – S. aureus RN4220 growth inhibition | actives 0.33% (n = 330,000) | OD600, 16 h | inhibition, % (concentration not given with the values) | AID 1259311;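 active = z-score of -3 or lower and OD600 up to 0.18 on both plates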;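 also: plate controls were untreated cells for no effect and reference antibiotic for full effect; stock transfer was 100 nL into about 80 µL; one replicate is shown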
PrP 5UTR inh – inhibition of PrP 5' UTR reporter expression; cell-based PrP 5' UTR mRNA reporter, plate reader; inhibition, % (no concentration beside the values); actives 0.35% (n = 340,000);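 active = every replicate at 50% or more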;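 also: 0 = median of the neutral control wells; tested in H4 reporter cells; numbers are from one replicate; inactives centre near -14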
BJeLR viability – BJeLR cell viability loss; BJeLR (HRASV12) viability, CellTiter-Glo ATP luminescence, 48 h; reference of the scale not given here; inhibition, % (test concentration not listed); actives 0.17% (n = 300,000);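 active = replicate mean above 50%; inconclusive = above 50% but judged a plate artefact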;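 also: 50 nL library stock added to about 25 µL; numbers are from one replicate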
Sa ugtP lethal – kills S. aureus RN4220 lacking UgtP. S. aureus RN4220 ugtP deletion, OD600 growth, 16 h; some inactives read as strong as hits. actives 0.54% (n = 330,000). AID 1259309. growth inhibition, % (no concentration beside the values);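 active = z-score under -3 and OD600 up to 0.15 on both plates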;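 also: plate controls were untreated wells for no effect and antibiotic for full effect; wells of about 80 µL received 100 nL stock; the first replicate is given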
Bead autofluor – flagged as autofluorescent in microsphere protease counterscreen. compound autofluorescence counterscreen, microsphere flow cytometry; active compounds read high. fluorescence intensity (concentration not given with the values). actives 3.1% (n = 360,000). AID 624483;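 active = at least 3 SD above the mean of all compounds, about 16000 in these data; inconclusive = too few beads counted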;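 also: 100 nL of 1 mM stock went into each well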
Mtb hypoxia rep – inhibitors of hypoxia-regulated fluorescent reporter in Mycobacterium tuberculosis | M. tuberculosis hypoxia-regulated fluorescent reporter, fluorescence | actives 0.1% (n = 300,000) | fluorescence inhibition, % (test concentration not listed) | AID 1159583;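 active = 35 to 45% if threefold the growth effect, above 45% if 1.5-fold the growth effect; inactive = the rest, general growth blockers included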;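 also: wells of about 50 µL received 100 nL stock; 0% = vehicle wells and 100% = reference inhibitor wells; whole bacteria with a GFP reporter of the hypoxia response; strong numbers were not always called active; many hits fall short of the cut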
Mtb hypoxia rep growth – recorded beside Mtb hypoxia rep, whose call it bears; growth inhibition, %; measured here: M. tuberculosis growth (absorbance);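 0% = vehicle and 100% = reference antibiotic; read after six days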
Numbers without * were called inactive; ? = inconclusive; . = not tested or not shown.

SMILES	RN4220 kill	PrP 5UTR inh	BJeLR viability	Sa ugtP lethal	Bead autofluor	Mtb hypoxia rep	Mtb hypoxia rep growth
CN(C(=O)COc1ccc(Oc2ccccc2)cc1)C1CCS(=O)(=O)C1 (configuration not stated)	.	-14.4	-8.0	.	5586	.	.
CCCN1C(=O)/C(=N\OCC(=O)Nc2ccc(C(C)C)cc2)c2ccccc21	.	-32.8	-3.7	.	2413	.	.
COc1ccccc1NS(=O)(=O)c1ccc(N/N=C/c2c(C)nn(-c3ccccc3)c2N2CCCC2)c([N+](=O)[O-])c1	.	-14.8	-1.8	.	2017	.	.
CC1=C(C(=O)Nc2ccccc2)C(c2ccccn2)n2nc(CCCO)nc2N1 (configuration not stated)	3.0	2.7	-16.0	11.5	4217	5.3	1.0
CCOc1ccccc1N(CC(=O)NCc1ccc(OC)cc1)S(C)(=O)=O	2.8	10.8	-4.5	5.8	9241	11.3	3.2
CC1=Nc2cc(C(=O)N3CCC4(CC3)OCCO4)ccc2Sc2ccc(Cl)cc21	1.5	-25.4	10.9	-1.6	4855	2.9	2.4
O=C(Cc1ccc(F)cc1)Nc1ccccc1Sc1ccccc1	4.3	12.2	-4.1	-2.2	1995	14.9	0.9
COc1cc(C)c(Br)cc1S(=O)(=O)NCc1cccs1	4.4	-18.0	-19.2	-3.7	5343	10.0	9.7
O=C(CN1CCN(CC(=O)Nc2ccc3c(c2)OCO3)CC1)Nc1ccc(F)cc1	4.4	0.1	0.3	-3.9	3215	.	.
Cn1nc(C(C)(C)C)cc1NC(=O)Nc1ccc(F)cc1F	4.7	2.8	2.5	9.1	4034	-5.0	-0.7
O=C(Nc1cccc(F)c1)N1C2CCC1CC(O)(c1cccnc1)C2 (configuration not stated)	1.5	-18.4	-4.7	-1.7	4572	-6.6	-1.0
CCOc1ccc(C(NC(C)=O)c2ccc(OC)c(OC)c2)cc1 (configuration not stated)	1.0	-15.6	-12.3	1.0	2389	11.8	-3.8
O=C(COC(=O)COc1ccc(Cl)cc1)Nc1ccc2c(c1)OCCO2	2.4	2.4	.	-0.3	6019	-10.5	2.9
CCN1CCN(c2nc([N+](=O)[O-])nn2C)CC1	1.4	-7.7	-4.3	13.0	6415	9.8	2.1
COc1ccc(S(=O)(=O)N2CCOCC2)cc1NC(=O)c1cc2ccccc2o1	8.2	-5.8	.	0.5	7276	5.2	-4.9
C=CCN(CC=C)S(=O)(=O)c1ccc(NC(=S)NC(=O)c2ccc(-c3ccccc3)cc2)cc1	2.4	-17.6	-0.7	-0.7	2759	.	.
CC(=O)N/C(=C\c1ccc(F)cc1)C(=O)N(C)C	2.3	-11.0	14.9	2.2	2000	7.4	0.6
COc1cc(OC)cc(-c2c(C#Cc3ccsc3)c3cc(-c4ccccc4OC)ccc3n2C)c1	5.3	-5.4	.	-4.7	3784	13.8	4.9
Cc1c(C(=O)O)sc2nc3n(c(=O)c12)CCC(C)CC3 (configuration not stated)	2.3	5.0	-4.8	4.0	7915	5.9	7.9
Cc1cc(CNC(=O)COc2ccc(F)cc2F)c2ccccc2n1	13.1	-7.9	9.0	1.3	3780	15.7	18.2
CCn1nc(NS(=O)(=O)c2ccc(F)cc2)c2cc3cccc(C)c3nc21	3.6	-17.8	-0.7	-18.7	5722	12.6	8.5
CC(NC(=O)c1ccccc1NC(=O)c1ccncc1)c1ccccc1 (configuration not stated)	2.0	-11.4	8.6	-5.2	2695	-0.8	3.2
O=c1oc2ccccc2cc1-c1nc2c(s1)CCc1ccccc1-2	-1.6	-14.6	8.8	6.2	3123	7.5	3.9
Cc1onc(-c2c(F)cccc2Cl)c1C(=O)N(C)C1CCCCC1	9.0	-0.7	-2.5	-1.8	6142	11.5	-0.5
CCC1=Nc2cc(C(=O)O)ccc2Sc2ccccc21	8.5	3.2	-1.5	-8.2	5650	.	.
O=C1c2ccccc2C(=O)c2c1cccc2N(CCO)CCO	.	-17.2	-9.9	.	4555	.	.
O=C(COc1ccc(S(=O)(=O)NC2CCCCC2)cc1Cl)NCC1CCCO1 (configuration not stated)	-4.1	9.0	-6.4	-3.6	3171	11.9	13.6
OC(c1ccccc1)(c1ccccc1)c1nccn1-c1ccccc1	7.7	-12.5	.	0.3	3533	24.4	8.4
COc1ccc(OC)c(NC(=O)N2CCCC(C)C2)c1 (configuration not stated)	1.9	-14.2	0.2	3.0	4281	11.4	14.6
CCOC(=O)c1cc([N+](=O)[O-])c([N+](=O)[O-])cc1NC(C)=O	1.2	0.4	6.0	11.7	9748	15.2	15.2
CC(CC(=O)Nc1ccc(C)c(Cl)c1)=NNC(=O)c1ccccn1	2.2	.	.	-7.5	.	8.4	4.6
CC(=NN(C)C)C1=C(O)c2ccccc2C1=O	5.0	.	.	7.7	.	7.8	0.9
Cc1cc(/C=N/n2cnnc2)c(C)n1-c1ccc(Cl)cc1Cl	.	-67.2	-0.4	.	10532	.	.
CCN(CC)S(=O)(=O)c1cccc(C(=O)OCC(=O)c2ccc3c(c2)OCCO3)c1	-1.5	-13.1	-4.6	0.5	2124	3.1	7.9
Cc1ccc(-c2csc(NC(=O)c3ccccc3F)c2C(=O)O)cc1	13.1	-10.0	4.1	-15.7	3981	16.0	0.2
Nc1nc(SCC(=O)NC2CCCC2)[nH]c(=O)c1NC(=O)c1cccs1	-4.0	-1.4	0.5	-8.6	3539	1.0	1.1
Cc1nc(-c2cccc(NS(=O)(=O)c3ccc4ccccc4c3)c2)cs1	18.1	-2.1	-7.8	91.3*	?	3.5	6.5
CCOC(=O)c1sc2ncn(CC(=O)NCC3CCCO3)c(=O)c2c1C (configuration not stated)	-6.4	-15.9	-2.9	-2.7	4807	.	.
O=C(Nc1ccc(Cl)c(C(F)(F)F)c1)[C@@H]1CC=C[C@@H]2CCN(Cc3ccc(Cl)c(Cl)c3)C(=O)[C@@H]21	.	-3.2	-9.8	.	3818	.	.
COc1ccc(CN=CC2=C(O)CNC2=O)cc1	1.2	10.8	-1.0	1.5	4738	.	.
O=c1ccnc(S/C=C/c2ccccc2)[nH]1	10.2	-27.9	2.4	6.5	7086	6.8	-1.9
COc1ccc(/C(O)=C2/C(=O)C(=O)N(c3nc(C)c(C)s3)C2c2ccco2)cc1 (configuration not stated)	.	-17.3	-2.6	.	2436	.	.
O=C1C2CC=CCC2C(=O)N1c1ccc(Cc2ccncc2)cc1 (configuration not stated)	1.7	-12.6	-2.8	0.8	12721	5.5	7.4
O=C(CNC(=O)c1cccc(Br)c1)N/N=C/c1cn[nH]c1-c1ccccc1	.	-8.0	-2.0	.	2442	.	.
O=C(NCc1ccccc1)c1onc(CS(=O)(=O)c2ccc(Cl)cc2)c1C(=O)NCc1ccccc1	8.2	-20.4	26.6	-0.9	4126	7.6	16.1
CC(C)C(=O)Nc1cccc(-c2csc(-c3ccccc3)n2)c1	-5.6	-14.6	-17.2	-4.1	2145	6.7	0.9
CN(C)C1=NCC(Cc2ccccc2)N1CCCC1CCCCC1 (configuration not stated)	-0.8	.	.	-23.1	.	24.9	37.2
CC1CCN(C(=O)CCNS(=O)(=O)c2ccc(Cl)cc2)CC1	-3.3	-25.4	15.7	3.8	3656	1.0	10.1
O=C(Nc1cc(S(=O)(=O)N2CCOCC2)ccc1N1CCCC1)c1ccc(F)cc1	-0.7	-1.8	.	-1.9	8697	-14.5	-2.2
Oc1ccc(Br)cc1C=Nn1c(C2CCCCC2)n[nH]c1=S	3.8	.	.	10.3	.	0.0	10.4
Cc1ccc(OCc2cc(C(=O)NC3CCc4ccccc43)no2)cn1 (configuration not stated)	-1.9	-18.0	3.8	9.8	5660	2.6	7.3
CS(=O)(=O)Nc1cccc(C2=NN(C(=O)c3cccc([N+](=O)[O-])c3)C(c3cccs3)C2)c1 (configuration not stated)	5.0	-3.6	-4.2	-7.6	3616	-0.4	1.6
O=C(O)CCC(=O)Nc1ccc(OCC2CCCO2)cc1 (configuration not stated)	2.2	-3.8	3.0	2.7	2789	4.5	-1.0
O=C(N/N=C/c1cccnc1)c1ccc2c(c1)OCCO2	.	-20.9	9.1	.	2319	.	.
CN1C(=O)CSc2ccc(NC(=O)N3CCC(N4CCCCC4)CC3)cc21	1.3	-10.8	-4.2	5.9	8518	14.9	4.2
Cc1csc(NC(=O)c2ccccc2[N+](=O)[O-])n1	-0.1	-25.4	-1.6	-4.4	9757	8.9	2.3
Cn1cccc1C(=O)OCC(=O)N1c2ccccc2NC(=O)C1(C)C	-0.4	-17.3	9.8	4.7	4318	13.1	6.3
CCC1=NN(C(=O)Cc2ccccc2)C(O)(c2ccncc2)C1 (configuration not stated)	6.8	-4.8	3.6	4.0	2508	8.6	0.3
Cc1cc(NC(=S)NC(=O)/C=C/c2ccc(S(=O)(=O)N3CCOCC3)cc2)ccc1Br	4.2	-10.3	4.0	6.2	2713	5.5	5.9
COc1ccc(N=Nc2cc(C)c(O)c(CN3CCCCC3)c2)cc1	0.7	-22.6	-9.3	14.7	.	-4.0	9.0

Entries of single compounds, looked up by structure:
`O=c1ccnc(S/C=C/c2ccccc2)[nH]1` as listed: RN4220 kill = 10.2; PrP 5UTR inh = -27.9; BJeLR viability = 2.4; Sa ugtP lethal = 6.5; Bead autofluor = 7086; Mtb hypoxia rep = 6.8; Mtb hypoxia rep growth = -1.9
`CS(=O)(=O)Nc1cccc(C2=NN(C(=O)c3cccc([N+](=O)[O-])c3)C(c3cccs3)C2)c1` (configuration not stated) as listed: RN4220 kill = 5.0; PrP 5UTR inh = -3.6; BJeLR viability = -4.2; Sa ugtP lethal = -7.6; Bead autofluor = 3616; Mtb hypoxia rep = -0.4; Mtb hypoxia rep growth = 1.6
`Cc1ccc(OCc2cc(C(=O)NC3CCc4ccccc43)no2)cn1` (configuration not stated) as listed: RN4220 kill = -1.9; PrP 5UTR inh = -18.0; BJeLR viability = 3.8; Sa ugtP lethal = 9.8; Bead autofluor = 5660; Mtb hypoxia rep = 2.6; Mtb hypoxia rep growth = 7.3

The listing continues.
SMILES	RN4220 kill	PrP 5UTR inh	BJeLR viability	Sa ugtP lethal	Bead autofluor	Mtb hypoxia rep	Mtb hypoxia rep growth
CCOC(=O)CNC(=O)c1cccnc1	2.8	-16.1	-7.4	8.6	2184	.	.
C/C(=N\O)C(=O)OC1CC(C)CCC1C(C)C (configuration not stated)	.	-6.3	7.4	.	24312*	.	.
O=C(CSCC(=O)N1CCCCC1)Nc1nc(-c2ccc(Cl)s2)cs1	4.8	-34.6	-2.8	28.3	6260	4.7	4.7
Cc1cc(OCC(=O)NN2C(=O)c3ccccc3C2=O)ccc1Cl	1.4	-20.5	2.4	-0.3	?	-4.5	-6.4
CN(C)S(=O)(=O)N1CCc2ccc(NC(=O)c3ccc(C(F)(F)F)cc3)cc2C1	1.3	-30.2	16.6	16.4	4014	3.2	3.0
CCc1nc(SCC(=O)NCc2ccco2)c2c3c(sc2n1)CCCC3	-1.0	-14.3	-12.3	76.2	3593	.	.
CCN(CC)c1cc(C)c(C#N)c2nc3ccccc3n12	-1.0	-23.1	11.6	1.5	4281	18.8	-1.0

Among those listed so far, four contain an NH in an aromatic ring.
SMILES	RN4220 kill	PrP 5UTR inh	BJeLR viability	Sa ugtP lethal	Bead autofluor	Mtb hypoxia rep	Mtb hypoxia rep growth
Nc1nc(SCC(=O)NC2CCCC2)[nH]c(=O)c1NC(=O)c1cccs1	-4.0	-1.4	0.5	-8.6	3539	1.0	1.1
O=c1ccnc(S/C=C/c2ccccc2)[nH]1	10.2	-27.9	2.4	6.5	7086	6.8	-1.9
O=C(CNC(=O)c1cccc(Br)c1)N/N=C/c1cn[nH]c1-c1ccccc1	.	-8.0	-2.0	.	2442	.	.
Oc1ccc(Br)cc1C=Nn1c(C2CCCCC2)n[nH]c1=S	3.8	.	.	10.3	.	0.0	10.4
